Vaccinia Venus = qHTS for Stage-Specific Inhibitors of Vaccinia Orthopoxvirus: Venus Reporter Primary qHTS. Vaccinia virus Venus reporter expression, fluorescence. AID 720580, 2013. 330,000 compounds, 0.46% hits. Potency, µM (titrated, usually from 36.5 µM), for the others: at the top dose activity change, negative = inhibition, actives largely listed as inhibitors; active means well fitted inhibition curve with a large enough effect; inconclusive means small, poorly fitted or top-dose-only effect; inactive means no such curve, though single readings can be large or run the other way; tested in A549 cells; note: nearly all actives have a fitted effect of over 30% in size; inactives centre near -10
VACV mCherry inh = qHTS for Stage-Specific Inhibitors of Vaccinia Orthopoxvirus: mCherry Reporter Primary qHTS. Potency, µM (doses to about 36.5 µM), for inactives: top-dose activity change, negative = inhibition, most hits filed as inhibitors. AID 720579, 2013. 310,000 compounds, 0.63% hits. Vaccinia virus mCherry reporter infection, fluorescence; about a quarter of the inactives have no number; active = well fitted inhibition curve with a large enough effect; inconclusive = small, poorly fitted or top-dose-only effect; inactive = no such curve, though single readings can be large or run the other way; tested in A549 cells; note: nearly all actives have a fitted effect of over 35% in size; inactives centre near -10
Active calls of the source: *; i = inactive; ? = inconclusive; nt = no result given; & = joins results of further samples; [ ] = dose if it differs, or a comment. % is set by controls: 0 for no effect and ±100 for the full control effect; potency is the fitted concentration of half-maximal effect.

SMILES | Vaccinia Venus | VACV mCherry inh
N#Cc1ccccc1NC(=O)CSc1ccc([N+](=O)[O-])cn1 | 7% | -17%
O=C(/C=C/c1ccco1)Nc1nc(-c2ccccc2)cs1 | -10% | -16%
COc1ccccc1C(=O)NCC(=O)OCc1csc(-c2ccccc2)n1 | -3% | -15%
CC(=O)c1c(C)[nH]c(C(=O)Nc2ccccn2)c1C | -7% | i
COC(=O)CNC(=O)C(=O)OC | -11%[3.33 µM] | -15%[3.33 µM]
CCN(CC)C(=O)NC(c1ccc(C)c(F)c1)C(Cl)(Cl)Cl (stereo not given) | -5% | -2%
O=C(NCC1CCCO1)Nc1cc(Cl)cc(Cl)c1 (stereo not given) | -22% | -9%
COCCn1c(C)cc(C(=O)COc2nc3ccccc3nc2C)c1C | ? | -9%
Cc1ccc(S(=O)(=O)N2CCOCC2)cc1C(=O)OCC(=O)NC1CCCCC1 | -21% | i
Cc1cccn2c(=O)c(C(=O)N3CCN(c4ccccc4F)CC3)cnc12 | -6% | -10%
Cc1cc(N/N=C(/CCC(=O)O)C(=O)O)nc2ccccc12 | -4% | -7%
CC(C)CCOP(=O)(c1ccccc1)c1ccccc1 | -17% | -7%
COCCCn1c(=O)c2ccccc2n(CC(=O)N2CCCc3ccccc32)c1=O | -6% | 4%
COc1ccc(NC(=O)C2Cc3c(-c4ccc(Cl)cc4)ccnc3O2)cn1 (stereo not given) | -23% | -4%
Cn1c(N)c(S(=O)(=O)NCc2ccc(F)cc2)c(=O)n(C)c1=O | -10% | -9%
CC(=O)Nc1cc(-c2ccsc2)cn2c(-c3ccc(F)cc3)cnc12 | -1% | 11%
COc1cc(OC)cc(C(=O)NC(C)c2ccc(Br)cc2)c1 (stereo not given) | -13% | -2%
Cc1ccccc1-n1nc(CO)c(C(=O)NCCc2ccccc2)n1 | -9% | -2%
CCOC(=O)N1CCc2c(sc3c2c(=O)n(-c2ccc(Cl)cc2)c(=O)n3CC(C)C)C1 | -16% | -14%
O=S(=O)(c1ccc(OC(F)(F)F)cc1)N1CCC(c2nc3ccccc3s2)CC1 | -4% | 3%
COc1ccc(CCN)cc1O | -8%&-13% | -8%
COc1ccc(/C=N/Nc2ncnc3sc4c(c23)CCCC4)cc1OC | -17% | -16%
Cc1cccc(-c2nnn3c2nc(NCc2ccc4c(c2)OCO4)c2ccccc23)c1 | -5% | -6%
CC(=O)NC(CC(=O)N(C)C1CCCCC1)c1ccccc1 (stereo not given) | 0% | -2%
CN(Cc1ccncn1)C(=O)C1CCC(=O)N(Cc2cccc(C(F)(F)F)c2)C1 (stereo not given) | -9% | i

Next compounds.
SMILES | Vaccinia Venus | VACV mCherry inh
CON1C(=O)C(=O)N(OC)C(C)(C)C1(C)C | -2% | i
COc1ccc([C@H]2CC(=O)C=C(c3ccc(Br)c4ccccc34)C2)cc1 | -13% | -18%
CC1CN(S(=O)(=O)c2ccc(NC(=O)c3ccco3)cc2)CC(C)O1 (stereo not given) | -25% | i
Cc1ccc(S(=O)(=O)N(CC(=O)N2CCOCC2)CC(=O)N2CCOCC2)cc1 | -15% | i
CCCn1c(SCC(=O)Nc2ccc(S(=O)(=O)N3CCOCC3)cc2)n[nH]c1=O | -6% | -3%
CO/N=C\Cc1oc(=O)c(NC(=O)c2ccccc2)cc1C(=O)OC | 2% | -24%
C=CCN=C(NC#N)SCC(=O)NCc1ccccc1 | -1% | nt
CSc1nnc(CNC(=O)/C=C/c2ccccc2Cl)n1-c1ccc(F)cc1 | 0% | i
CCN(CC)S(=O)(=O)c1cccc(NC(=O)CN2C(=O)NC3(CCC(C)CC3)C2=O)c1 (stereo not given) | -23% | -30%
CCOc1ccc(CCNC(=O)c2cccc(-n3c(C)nc4cccnc43)c2C)cc1 | -14% | i
Cc1c(C(=O)Nc2cccc(-c3nc4ccccc4s3)c2)oc2ccc(F)cc12 | -7% | -18%
OCCC1CN(Cc2ccc(F)cc2Cl)CCN1CCc1ccccc1 (stereo not given) | -6% | -7%
CCCCn1c(N)c(N(CC(C)C)C(=O)c2cnccn2)c(=O)[nH]c1=O | -12% | -7%
Cc1ccc(S(=O)(=O)N2CCCCCC2)cc1C(=O)Nc1cccnc1 | -8% | -14%
Cc1cc(C)n(-c2nc3cc(Cl)ccc3nc2Nc2ccc(C)c(F)c2)n1 | -5% | -4%
Cc1nc2c(c(SCC(=O)Nc3ccccc3C(F)(F)F)n1)CCC2 | -14% | -10%
O=C(CSc1nnc(NC(=O)C2CC2)s1)Nc1ccc(F)cc1 | -13% | -6%
CN(C)S(=O)(=O)N1CCC(Oc2ccc(C(=O)NCCc3cscn3)cc2)CC1 | -13% | -2%
Fc1cccc(CN(C2=NCCN2)c2c(Cl)cccc2Cl)c1 | -21% | -10%
COc1ccc(Oc2nc(-c3ccccc3)ncc2C(=O)O)cc1 | -2% | i
COC(=O)c1ccccc1NC(=O)CCCn1nc([N+](=O)[O-])cc1C | 12% | ?
CC1=C(C(=O)OC2CCCCCC2)C(c2ccccc2Cl)CC(=O)N1 (stereo not given) | 5% | 0%
CCN(CC)S(=O)(=O)c1ccc2c(c1)nc(SCC(=O)N(C)C1CCS(=O)(=O)C1)n2CC (stereo not given) | -8% | -18%
CCOC(=O)/C(C#N)=C\c1cccnc1 | -1% | -9%
CCOC(=O)c1sc(NC(=O)c2ccc(OC(C)=O)cc2)nc1C | -15% | -15%

The listing continues:
SMILES | Vaccinia Venus | VACV mCherry inh
CCC(=O)c1cn(CC(=O)NCc2cccnc2)c2ccccc12 | -2% | -12%
COc1ccc(C(CNC(=O)c2cccc(S(=O)(=O)Nc3ccccc3OC)c2)N2CCCCC2)cc1 (stereo not given) | -18% | -8%
CCCCNC(=O)/C=C/c1ccc(OC)c(Br)c1 | -11% | -21%
Cc1nc(C(=O)N2CCCC(C(=O)c3ccc(Cl)cc3)C2)cs1 (stereo not given) | -22% | -5%
O=C(c1ccc2c(c1)OCCO2)N(Cc1cccnc1)c1nc2c(F)cccc2s1 | -7%[7.34 µM] | -11%[7.34 µM]
CCOC(=O)c1c(NC(=O)c2ccccc2C)sc2c1CC(C)(C)OC2 | -11% | nt
CC(C)Oc1ccc(CNC(=O)CCC(=O)N2CCSc3ccccc32)cc1 | -11% | i
Cc1ccc2nc(-c3ccc(NC(=O)C(C)N4C(=O)c5ccccc5C4=O)cc3)sc2c1 (stereo not given) | -10% | -19%
COCCCNC(=O)C(F)(F)C(F)(F)C(=O)NCCCOC | -22% | nt
Cc1cc(C)n(CC(=O)c2cccc(N)c2)n1 | -6% | i
NC(=O)[C@@H]1CCCN1C(=O)[C@H](Cc1ccccc1)NC(=O)[C@@H]1CCCN1C(=O)[C@@H](N)Cc1ccc(O)cc1 | -1%[3.33 µM] | -14%[3.33 µM]
C[C@H]1COc2cc(N3CCSCC3)ccc2S(=O)(=O)N1 | 7% | 26%
O=C(Nn1c(SCc2ccccc2F)nc2ccsc2c1=O)c1ccccc1 | 0% | -1%
COC(=O)c1ccc(COc2ncnc3ccccc23)o1 | -8% | -2%
N#Cc1ccc(OCC(=O)OCC(=O)Nc2cc(C(F)(F)F)ccc2N2CCOCC2)cc1 | -11% | 0%
CCCCCCn1c(SCC(=O)NC2CCS(=O)(=O)C2)nc2ccccc2c1=O (stereo not given) | -11% | i
CC[C@@H]1C/C=C\Cc2ccccc2[C@@H](C(=O)C[C@H](O)CC(C)=O)OC1=O | -3% | 14%
COC(=O)[C@H](Cc1ccccc1)NC(=O)CC[C@H]1O[C@@H](n2ccc(=O)[nH]c2=O)[C@H](O)[C@@H]1O | 9% | 7%
O=C(C1CCC(CNS(=O)(=O)c2cccs2)CC1)N1CCN(c2ccc(F)cc2)CC1 (stereo not given) | -24% | ?
Fc1ccc(N/N=C/c2ccncc2)c(F)c1 | -8% | -17%
N#Cc1ccccc1CSc1ccccn1 | -5% | -11%
CCCNc1c(NS(=O)(=O)c2ccc(C)cc2C)c(=O)oc2ccccc12 | 0%[7.34 µM] | i[7.34 µM]
CC(=O)CSc1cc(-c2ccccc2)nc2ncnn12 | 16% | -5%
CCOC(=O)CNS(=O)(=O)c1ccc2c3c(cccc13)C(=O)N2CC | -11% | -14%
CCCn1cc(S(=O)(=O)c2cc(C)ccc2C)c(=O)c2cc(F)c(N3CCOCC3)cc21 | -10% | i

Two of these compounds in another layout.
canonical_smiles	Vaccinia Venus	VACV mCherry inh
CC(C)Oc1ccc(CNC(=O)CCC(=O)N2CCSc3ccccc32)cc1	-11%	i
Cc1ccc2nc(-c3ccc(NC(=O)C(C)N4C(=O)c5ccccc5C4=O)cc3)sc2c1 (stereo not given)	-10%	-19%

Another view of part of the listing above.
mol: O=C(c1ccc2c(c1)OCCO2)N(Cc1cccnc1)c1nc2c(F)cccc2s1
  Vaccinia Venus: -7%[7.34 µM]	VACV mCherry inh: -11%[7.34 µM]

mol: Cc1ccc(S(=O)(=O)N(CC(=O)N2CCOCC2)CC(=O)N2CCOCC2)cc1
  Vaccinia Venus: -15%	VACV mCherry inh: i

A draw from above in order of length of the SMILES, rising.
SMILES | Vaccinia Venus | VACV mCherry inh
Fc1cccc(CN(C2=NCCN2)c2c(Cl)cccc2Cl)c1 | -21% | -10%
COc1ccc([C@H]2CC(=O)C=C(c3ccc(Br)c4ccccc34)C2)cc1 | -13% | -18%
CCCn1cc(S(=O)(=O)c2cc(C)ccc2C)c(=O)c2cc(F)c(N3CCOCC3)cc21 | -10% | i

In a second layout: results already given.
CC(C)Oc1ccc(CNC(=O)CCC(=O)N2CCSc3ccccc32)cc1
  Vaccinia Venus = -11% | VACV mCherry inh = i
Cc1ccc2nc(-c3ccc(NC(=O)C(C)N4C(=O)c5ccccc5C4=O)cc3)sc2c1 (stereo not given)
  Vaccinia Venus = -10% | VACV mCherry inh = -19%
COCCCNC(=O)C(F)(F)C(F)(F)C(=O)NCCCOC
  Vaccinia Venus = -22% | VACV mCherry inh = nt
Cc1cc(C)n(CC(=O)c2cccc(N)c2)n1
  Vaccinia Venus = -6% | VACV mCherry inh = i

(continued)
SMILES | Vaccinia Venus | VACV mCherry inh
COc1cccc(NC(=S)N2CCN(C)CC2)c1 | -12% | i
O=C(CNC(=O)c1ccc(Cl)cc1)c1ccc(Br)cc1 | -8% | i
Cc1occc1C(=O)NNC(=O)C1CCCC1 | -9% | i
COc1cc(OC)cc(C(=O)Nc2ccc(C(=O)NCC3CCCO3)cc2)c1 (stereo not given) | -18% | i
CCC(=O)c1ccc(OCC(=O)OCC(=O)N2CCCc3ccccc32)cc1 | -1% | -25%
Cc1cc(C)c(NC(=O)CN2CCOCCOCCOCCOCC2)c(C)c1 | -11% | -14%
Cc1ccc(N2C(=O)N(CC(=O)Nc3ccc(C)cc3Cl)C(=O)C2C)cc1 (stereo not given) | -29% | -13%
C/C(=N\NC(=O)c1ccn(C)n1)c1cccc(NC(=O)c2ccncc2)c1 | -21% | -15%
COc1cccc(C2C(C(=O)Nc3ccccc3)=C(C)Nc3nc(-c4ccccc4)nn32)c1OC (stereo not given) | -5% | -15%
CN(C)P1(N(C)C)=Nc2c(c(N)nn2C)C(c2ccccc2)=N1 | 0%&-2% | -2%
O=C(NCC(c1ccc2c(c1)OCO2)N1CCN(c2ccccc2)CC1)C(=O)Nc1ccccc1 (stereo not given) | -7% | -9%
CC(=O)NC1(NC(C)=O)CCN(C)CC1 | -8% | 7%
COC(=O)c1ccc(CO/N=C2\CCCc3nonc32)cc1 | -2% | -12%
CCC(C)(C)n1nnnc1C(C(C)C)N(CCCO)Cc1cc2cc(C)ccc2[nH]c1=O (stereo not given) | ? | nt
Cn1c(SCC(N)=O)nnc1-c1ccc(S(=O)(=O)N2CCCC2)cc1 | -19% | -6%
Cc1cc(C)c(OCC(=O)Nc2nnc(C3CC3)s2)c(C)c1 | -13% | -8%
CC1CCN(C(=O)N[C@@H](Cc2ccccc2)C(=O)O)CC1 | -14% | nt

Screening data deposited in PubChem by National Center for Advancing Translational Sciences (NCATS).
